Source: PubChem (National Center for Advancing Translational Sciences (NCATS))
AmpC nodet inh: AmpC beta-lactamase inhibition, detergent-free assay; P00811; AmpC nitrocefin hydrolysis, absorbance 480 nm, no detergent; potencies from a single point are estimates; Potency, µM (doses to about 28.7 µM), without a hit: at the top dose activity change, negative = inhibition; 1.8% of 71,000 active; AID 585; active = falling curve, for most hits resting on a single point; inconclusive = weak or doubtful change; inactive = flat or rising curve; note: % of control where 0% means no effect; about half of the hits show no inhibition at the top dose; a quarter of the inactives give rising signals
Target sequence (P00811 whole entry, looked up): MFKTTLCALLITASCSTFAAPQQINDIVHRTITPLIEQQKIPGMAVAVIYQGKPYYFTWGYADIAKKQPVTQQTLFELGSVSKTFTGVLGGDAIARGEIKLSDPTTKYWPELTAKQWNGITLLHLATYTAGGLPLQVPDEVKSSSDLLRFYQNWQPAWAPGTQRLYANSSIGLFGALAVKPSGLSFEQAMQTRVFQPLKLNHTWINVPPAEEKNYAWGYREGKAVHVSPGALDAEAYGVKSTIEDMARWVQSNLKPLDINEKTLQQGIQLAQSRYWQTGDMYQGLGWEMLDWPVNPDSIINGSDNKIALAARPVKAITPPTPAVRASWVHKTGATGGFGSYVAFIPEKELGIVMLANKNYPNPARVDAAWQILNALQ
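Enzyme, pH 7.0 phosphate. Compound titrations were pre-incubated with AmpC for 15 min at room temperature before nitrocefin (stock 800 uM) addition; product formation was recorded at 480 nm every 20 s for 4 min.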
Starred values were filed as active, the others as inactive; & = joins results of further samples; [ ] = another dose, or the depositor's remark. Potency is the fitted concentration of half-maximal effect.

SMILES	AmpC nodet inh
COc1cc(C(=O)NCCCCCC(=O)O)cc(OC)c1OC	5%
CC1(C)Oc2ccc(C#N)cc2[C@H](N2CCCC2=O)[C@H]1O	0%&-4%
CCOC(=O)Nc1ccc2c(c1)N(C(=O)CCN1CCOCC1)c1ccccc1S2	118%
CCn1cc(C(=O)O)c(=O)c2cc(F)c(N3CCN[C@@H](C)C3)c(F)c21	-3%[12.8 µM]
Cc1cc(O)c2c(c1)C(=O)c1cccc(O)c1C2=O	-8%
C[C@@H](Cc1cccc(C(F)(F)F)c1)NCCOC(=O)c1ccccc1	24%[12.8 µM]
CC(C)[C@@H]1C(=O)N(S(C)(=O)=O)[C@H]2CCN(C(=O)/C=C\CN3CCCCC3)[C@@H]12	6%
CCCN(CCC)C(=O)[C@@H](CCC(=O)O)NC(=O)c1ccccc1	3%[12.8 µM]
COc1cc(C)nc(-n2nc(C)cc2OC)n1	7%[12.8 µM]
CC(C)(C(=O)c1cccnc1)c1cccnc1	-10%[12.8 µM]
O=C1CCc2cc(OCCCCc3nnnn3C3CCCCC3)ccc2N1	77%&24%
CCN(CCCCOC(=O)c1ccc(OC)c(OC)c1)[C@@H](C)Cc1ccc(OC)cc1	13%[12.8 µM]
CCCc1cc(C(N)=S)ccn1	-6%
C[C@@]12CCC(=O)C=C1CC[C@H]1[C@H]3CC[C@](O)(C(=O)CO)[C@]3(C)CC[C@@H]12	15%
Oc1ccc([C@@H]2CNCCc3c2cc(O)c(O)c3Cl)cc1	7%&-17%
CCN(CC)CCOC(=O)C(c1ccccc1)c1ccccc1	-22%[12.8 µM]
CCOC(=O)Nc1ccc(NCc2ccc(F)cc2)nc1N	10%
COc1ccc([C@@H]2CNC(=O)C2)cc1OC1CCCC1	8%
C[C@H]1C[C@@H]2[C@H]3CCC4=CC(=O)C=C[C@@]4(C)[C@@]3(Cl)[C@@H](O)C[C@]2(C)[C@]1(OC(=O)c1ccco1)C(=O)CCl	12%[12.8 µM]
Nc1cc(=O)[nH]c(N)n1	7%&7%
O=C(O)[C@@H]1[C@@H]2C[C@H]3c4[nH]c5ccccc5c4CCN3C[C@@H]2CC[C@@H]1O	27%
CN(C)CCO[C@](C)(c1ccccc1)c1ccccn1	1%[12.8 µM]
O=C(NCCN1CCOCC1)c1ccc(Cl)cc1	4%
CN1CCN(CCCN2c3ccccc3Sc3ccc(S(=O)(=O)N(C)C)cc32)CC1	49%[12.8 µM]
NC(=O)c1ccc(-c2nc(-c3ccc4c(c3)OCO4)c(-c3ccccn3)[nH]2)cc1	121%

Copied from above for reference:
SMILES	AmpC nodet inh
COc1cc(C(=O)NCCCCCC(=O)O)cc(OC)c1OC	5%
CC1(C)Oc2ccc(C#N)cc2[C@H](N2CCCC2=O)[C@H]1O	0%&-4%
CCOC(=O)Nc1ccc2c(c1)N(C(=O)CCN1CCOCC1)c1ccccc1S2	118%
CCn1cc(C(=O)O)c(=O)c2cc(F)c(N3CCN[C@@H](C)C3)c(F)c21	-3%[12.8 µM]

The main list resumes; the 6 compounds before the break are reprinted first.
SMILES	AmpC nodet inh
Nc1cc(=O)[nH]c(N)n1	7%&7%
O=C(O)[C@@H]1[C@@H]2C[C@H]3c4[nH]c5ccccc5c4CCN3C[C@@H]2CC[C@@H]1O	27%
CN(C)CCO[C@](C)(c1ccccc1)c1ccccn1	1%[12.8 µM]
O=C(NCCN1CCOCC1)c1ccc(Cl)cc1	4%
CN1CCN(CCCN2c3ccccc3Sc3ccc(S(=O)(=O)N(C)C)cc32)CC1	49%[12.8 µM]
NC(=O)c1ccc(-c2nc(-c3ccc4c(c3)OCO4)c(-c3ccccn3)[nH]2)cc1	121%
O=C(O)CCCCCCCC(=O)O	9%
Cc1oncc1C(=O)Nc1ccc(C(F)(F)F)cc1	-4%[12.8 µM]
C[C@@H]1[C@H](C)CC[C@@]2(C(=O)O[C@H]3O[C@@H](CO[C@H]4O[C@@H](CO)[C@@H](O[C@H]5O[C@@H](C)[C@@H](O)[C@@H](O)[C@@H]5O)[C@@H](O)[C@@H]4O)[C@@H](O)[C@@H](O)[C@@H]3O)CC[C@]3(C)C(=CC[C@H]4[C@@]5(C)C[C@@H](O)[C@@H](O)[C@](C)(CO)[C@@H]5CC[C@@]43C)[C@@H]12	55%[12.8 µM]
CN1CCC(=C2c3ccccc3CC(=O)c3sccc32)CC1	42%
CN1CCN(c2c(F)cc3c(=O)c(C(=O)O)cn4c3c2SCC4)CC1	-18%
COc1c(O)cc2c(c1O)[C@@H]1O[C@@H](CO)[C@@H](O)[C@@H](O)[C@@H]1OC2=O	-16%[12.8 µM]
CC[C@H]1C(=O)OC[C@@H]1Cc1cncn1C	-9%
Cc1nc2c([nH]1)c(=O)n(C)c(=O)n2Cc1ccco1	4%
CN(C)CCC[C@@]1(c2ccc(F)cc2)OCc2cc(C#N)ccc21	23%&13%
CCCCOC(=O)c1ccc(N)cc1	0%

Only part of the results is shown, so the mix of outcomes need not match the whole.
